Compound activity (PubChem)
PINK1 expr mod: changes PINK1 expression | PINK1 immunofluorescence, high-content cytometry, 24 h | Potency, µM (doses to about 76.6 µM), for the others: at the top dose activation (PINK1 increase), actives largely listed as activators | actives 0.2% (n = 410,000) | AID 624263; active = well fitted activation curve with a large enough effect; inconclusive = small, poorly fitted or top-dose-only effect; inactive = flat fitted curve, though single readings scatter; cell line not stated here;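 also: potency is read from the fitted curve at half-maximal effect; % of control where 0% means no effect; nearly all actives have a fitted effect of over 65% in size; a mitochondrial uncoupler was the plate control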
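Decision-based qHTS: stable cells, 24 h exposure to five compound concentrations, CCCP as control. Fixed cells stained for PINK1 plus nuclear, mitochondrial and cell markers, cytometer read.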
Sfp PPTase inh: blocks B. subtilis Sfp PPTase activity; Potency, µM, inactives show max response, negative = inhibition, most hits filed as inhibitors; Biochemical Sfp PPTase activity, qHTS; actives 3.5% (n = 310,000); Q9F4F7; active = well fitted inhibition curve with a large enough effect; inconclusive = small, poorly fitted or top-dose-only effect, or another doubt; inactive = no such curve, though single readings can be large or run the other way;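 also: the enzyme is Sfp with the accession as filed and its product quenches rhodamine fluorescence; potency is read from the fitted curve at half-maximal effect; 0% = enzyme reaction without inhibitor and -100% = no enzyme wells; top concentration of the series not given in the record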
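Step 1, compound plus 15 nM Sfp-PPTase, 15 min, room temperature. Step 2, add rhodamine-CoA (5 uM) and BHQ-2-YbbR (12.5 uM). Step 3, read 525/598 nm fluorescence at 0 and 30 min.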
TRPV1 potentiator: enhances activation of the human vanilloid receptor TRPV1; TRPV1-expressing cells, Fluo-8 calcium influx, capsaicin EC20 potentiation; host cell line not named in the record; control for the full effect not named in the record; actives 0.02% (n = 320,000); Q8NER1; potentiation, % at 8.33 µM; AID 540277; active means potentiation above 80%; inconclusive means 30% to 80%; inactive means below 30%; also: 0% is about no effect
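TRPV1-expressing cells were cultured overnight at 35.5C and loaded with Fluo-8 calcium dye for 40 to 90 min at room temperature. After a 10 s baseline, compound was added and calcium influx was read kinetically for 3 min (ex 480/em 520 nm).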
Menin MLL FP FL: inhibitors of human menin-MLL interaction, wild-type MLL peptide; 290,000 tested, under 10 active; FP activity change, % at 61.4 µM; Fluorescence polarization, fluorescein-MLL peptide displacement from menin; inconclusive = falling polarisation curve, or a change in total fluorescence; inactive = total fluorescence flat and polarisation flat or rising; no compound was filed as active; the % refers to the polarisation; negative = inhibition;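 also: % of control where 0% means no effect; inhibitors lower the polarisation; unlabelled MLL peptide was the positive control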
TRPML1 blocker: human mucolipin-1 channel inhibition; activity change, negative = inhibition, % (no concentration beside the values); actives 0.02% (n = 390,000); Q9GZU1; AID 624415; TRPML1-inducible cells, Ca2+ dye fluorescence, FDSS; stronger effect = lower value; inhibition of EC80 agonist-evoked calcium signal; in the data active means activity change below about -50%; inconclusive means about -30% to -50%; inactive means above about -30%;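 also: stimulus is agonist 54-4 at its EC80 concentration; % is scaled to controls: 0 for no effect and ±100 for the full control effect; compound concentration not given in the record; the text of the record puts the active cut at -80%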
Target sequence (Q9GZU1 whole entry, looked up): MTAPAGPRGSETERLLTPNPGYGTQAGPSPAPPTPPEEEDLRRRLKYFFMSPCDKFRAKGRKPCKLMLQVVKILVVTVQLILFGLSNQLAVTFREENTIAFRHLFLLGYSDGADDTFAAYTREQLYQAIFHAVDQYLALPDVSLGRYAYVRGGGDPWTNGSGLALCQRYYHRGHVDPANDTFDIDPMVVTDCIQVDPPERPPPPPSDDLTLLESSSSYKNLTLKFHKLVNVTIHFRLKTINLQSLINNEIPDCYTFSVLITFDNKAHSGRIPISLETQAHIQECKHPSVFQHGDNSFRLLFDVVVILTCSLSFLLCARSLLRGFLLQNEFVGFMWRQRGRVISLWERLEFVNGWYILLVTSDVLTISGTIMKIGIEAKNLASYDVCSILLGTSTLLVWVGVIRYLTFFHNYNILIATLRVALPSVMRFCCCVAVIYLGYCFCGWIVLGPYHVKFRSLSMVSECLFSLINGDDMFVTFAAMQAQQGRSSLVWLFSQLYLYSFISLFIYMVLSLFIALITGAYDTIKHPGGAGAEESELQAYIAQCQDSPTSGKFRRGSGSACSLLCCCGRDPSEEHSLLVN
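Calcium fluorescence in TRPML1-DL cells induced overnight with Tet: a 110 s read after compound pin addition, then a 110 s antagonist read after challenge with 54-4 at 4 uM final (EC80).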
TRPML1 agonist: human mucolipin-1 channel agonism; TRPML1-expressing cells, Ca2+ dye fluorescence, FDSS; host cell line not named in the record; reference of the full effect not given here; activation, % (concentration not given with the values); AID 624414; Q9GZU1; actives 0.12% (n = 410,000); in the data active = activation above about 50%; inconclusive = about 30% to 50%; inactive = below about 30%; also: 0% is about no effect; the text of the record puts the active cut at 80%
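Tetracycline-induced TRPML1-DL cells are seeded and incubated overnight before loading with a no-wash Ca2+ dye and quencher. Agonist activity is taken from the 110 s fluorescence read following compound pin-transfer on an FDSS, before EC80 54-4 challenge.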
ClpP mod: qHTS Assay for Activators of ClpP; actives 1.9% (n = 340,000); ATP-dependent Clp protease proteolytic subunit (Bacillus subtilis (strain 168)), P80244; purified B. subtilis ClpP, FRET peptide cleavage, 20 min; Potency, µM (highest dose often 57.5 µM), without a hit: top-dose activity change, negative = active; AID 651965, 2013; active = well fitted falling curve with a large enough effect; inconclusive = small, poorly fitted or top-dose-only effect; inactive = no such curve, though single readings can be large or run the other way; also: potency is read from the fitted curve at half-maximal effect; the source files actives as falling curves though it sought activators and does not explain the sign; nearly all actives have a fitted effect of over 65% in size; many hits overshoot -100%
Target sequence (P80244 whole entry, looked up): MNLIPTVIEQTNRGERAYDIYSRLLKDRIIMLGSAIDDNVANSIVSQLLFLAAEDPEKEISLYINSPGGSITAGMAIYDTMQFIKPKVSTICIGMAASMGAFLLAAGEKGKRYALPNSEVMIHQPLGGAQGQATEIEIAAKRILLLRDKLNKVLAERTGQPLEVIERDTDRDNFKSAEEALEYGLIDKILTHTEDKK
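Buffer: 100 mM Tris/HCl pH8, 100 mM KCl, 0.05% low protease BSA, 2.5% glycerol, 0.01% Tween-20. ClpP 10 microg/mL final; 20 min RT; delta FRET normalized to ADEP and DMSO controls.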
Numbers without * were called inactive; ? = inconclusive; . = no result given; & = joins results of further samples; [ ] = dose if it differs, or a comment.

SMILES | PINK1 expr mod | Sfp PPTase inh | TRPV1 potentiator | Menin MLL FP FL | TRPML1 blocker | TRPML1 agonist | ClpP mod
CN(C)C(=O)Oc1ccc2oc(=O)cc(-c3cc4ccccc4o3)c2c1 | 0.3% | -20% | -16 | -0.6 | 29 | -0.7 | ?
O=C(CNC(=O)c1ccc(Cl)cc1)Nc1ccc(Br)cc1C(=O)c1ccccc1 | 4.8% | 9% | 2 | 2.5 | 27 | 6.6 | .
Cc1cc(OCC(=O)N2CCC(C(=O)NCC(C)C)CC2)c2c3c(c(=O)oc2c1)CCCC3 | 1.6% | 2% | -1 | -6.0 | 5 | 0.2 | .
Cc1c(C(=O)N2CCC3(CC2)OCCO3)oc2ccccc12 | 2.8%[38.3 µM] | 3% | 1 | 7.7 | -7 | 0.2 | 0.1%
Cc1ccccc1-n1c(-c2ccco2)nc2ccccc2c1=O | 0.6% | 7% | 2 | 0.4 | -18 | 0.0 | -2.3%
O=[N+]([O-])c1ccc(N(CCO)CCO)c2c1no[n+]2[O-] | -1.9% | . | . | . | -2 | 2.3 | -29%
Cc1ccc(/C=C2\C(=O)NC(=O)N(CCc3ccc(F)cc3)C2=O)s1 | 6.9% | -11% | ? | 21 | 2 | -0.5 | -0.2%
O=C1C2CCCN2C(c2cccs2)N1c1ccccn1 (stereo not drawn) | -0.7% | 8% | 5 | 2.5 | -3 | 0.0 | -1.4%
C=CCNC(=O)c1c(N)n(Cc2ccco2)c2nc3ccccc3nc12 | -1.6%[38.3 µM] | -24% | 5 | ? | 2 | 3.8 | 16µM*
COc1ccc(C(c2c(O)c3ccccc3oc2=O)c2c(C)n(C)n(-c3ccccc3)c2=O)cc1 (stereo not drawn) | -0.2%&-0.9% | -4% | 8 | -0.8 | 30&6 | -0.6&-0.6 | -5.9%&-8.4%
C=CCn1c(O)c(C(C)=NCCC(c2ccccc2)c2ccccc2)c(=O)[nH]c1=O | 8.7% | -13% | -5 | 0.0 | 18 | 5.0 | 3.6%
CC1(C)OC(c2ccccc2)=C/C(=C/C=C2C(=O)NC(=O)NC2=O)O1 | 3.0% | -29% | -5 | ? | -14 | 16 | -11%
COc1cccc(C(c2nnnn2C(C)(C)C)N2CCC3(CC2)C(=O)NCN3c2ccccc2)c1OC (stereo not drawn) | 0.3% | . | . | . | . | -0.8 | 1.7%
CN[C@H]1C[C@H]2O[C@@](C)([C@H]1OC)n1c3ccccc3c3c4c(c5c6ccccc6n2c5c31)C(=O)NC4 | . | -13% | -16 | 0.5 | . | . | .
CN1CC[C@@]2(CCCN(C(=O)Oc3ccccc3)C2)C1 | 0.4% | 11% | . | 0.9 | . | . | .
C[n+]1c2cc(N)ccc2cc2ccc(N)cc21 | 0.8%&5.9% | -13% | . | ? | ? | 104* | -2.8%&-2.2%
COC(=O)c1ccc(CN2CCN(Cc3ccccc3)CC2)cc1 | 8.7%[38.3 µM] | 3% | -9 | 2.7 | 11 | 0.6 | -0.1%
Cc1cnc(NC(=O)CN2CCCCC2)s1 | 1.5% | 10% | -8 | -0.9 | -11 | 0.2 | 14µM*
Cc1cc(C(=O)N2CCC3(CC2)OCCO3)no1 | 0.2% | 5% | 1 | -8.2 | 11 | -0.2 | -3.5%
CN1C(=O)N(C)C(=O)C(CCc2ccncc2)(CCc2ccncc2)C1=O | -0.8% | 3% | 0 | 2.1 | -5 | 3.6 | -2.4%
COc1cc([C@@H]2c3cc4c(cc3[C@H](OC(C)=O)[C@H]3COC(=O)[C@H]23)OCO4)cc(OC)c1OC | 6.2% | . | . | . | . | -0.9 | -0.1%
CCC(=O)OC(Cc1ccccc1)(c1ccccc1)C(C)CN(C)C (stereo not drawn) | 1.2% | . | . | . | 14 | -0.4 | 0.3%
C=CCn1c(O)c(C(C)=NCc2cc(OC)cc(OC)c2)c(=O)[nH]c1=O | -2.1% | -6% | 8 | 4.1 | -20 | 2.1 | -0.6%
CCn1c(O)c(C=NCCN2CCOCC2)c(=O)n(CC)c1=S | 5.9% | 5% | -2 | 17 | 27 | 0.0 | 0.2%
O=c1c2ccccc2nc(/C=C/c2ccc(O)cc2)n1-c1ccc(O)cc1 | 13% | 9% | -24 | ? | 20 | 2.4 | -6.9%
COC(=O)C1=C(c2ccc(F)cc2OCc2ccccc2)C[C@@H]2CC[C@H]1N2C(=O)NCc1ccc([N+](=O)[O-])cc1 | 1.5% | . | 10 | . | 41 | 1.2 | 0.9%
O=C(c1cc2c(s1)CCCC2)N1CCC2(CC1)OCCO2 | 25%[38.3 µM] | 3% | 26 | 11 | 6 | 0.2 | -0.6%
COc1ccc(CC2C(=O)N(c3ccccc3)C(=O)N(c3ccccc3)C2=O)c(OC)c1 | 13%[38.3 µM] | -1% | 10 | 5.0 | -9 | 0.3 | -2.4%
COc1ccccc1OCC(=O)N1CCCC(N2CCN(c3ccc(F)cc3)CC2)C1 (stereo not drawn) | 0.9% | 14% | -6 | . | -22 | 1.0 | -1.5%
Cc1ccccc1-c1nc2ccccc2c(=O)n1C | -1.4% | -2% | -10 | 0.1 | 9 | 0.6 | -0.4%
COc1ccc(C=O)cc1 | 0.1% | . | 7 | . | 10 | -0.7 | 1.8%
CC(=O)N1CCN(CC(=O)Nc2ccc(C#N)c(Cl)c2)CC1 | -0.2% | 9% | 5 | -0.6 | -6 | 0.3 | -0.5%
CC(C)n1nnnc1CN1CCN(C)CC1 | 3.3% | 12% | 3 | 0.5 | -12 | -0.4 | -0.3%
O=C(Cc1ccccc1)N1CCN(Cc2c[nH]c3ccccc23)CC1 | -1.0%[38.3 µM] | 0% | 6 | -2.2 | 5 | -0.4 | 1.0%
Fc1ccc(CCNCc2ccccc2Cl)cc1 | -0.3%[38.3 µM] | 8% | 6 | 3.6 | -10 | -0.3 | 0.8%
COC(=O)C1=C(c2ccc(S(C)(=O)=O)cc2)C[C@@H]2CC[C@H]1N2C(=O)NCC1CC1 | -0.8% | . | . | . | 8 | -0.6 | 0.1%
Cc1ccc(CN2C(=O)CN=C(c3ccccc3)c3ccccc32)cc1 | 1.5% | -5% | -11 | 6.8 | 19 | 2.3 | -13%
Cc1nc2ccc(Cl)cc2c(=O)n1-c1ccc([N+](=O)[O-])cc1 | 1.5% | 10% | 3 | -7.2 | 7 | -0.2 | .
O=C(C(=O)N1CC=C(c2ccccc2)CC1)c1c[nH]c2ccccc12 | -2.1% | 3% | 9 | ? | 6 | 0.0 | -0.8%
NS(=O)(=O)c1ccc(-c2ccc(C=C3C(=O)NC(=O)NC3=O)o2)cc1 | 0.5% | 14µM* | 17 | -0.6 | -19 | -0.5 | 4.5%
CCCC/C(=N\O)c1c[nH]c2ccccc12 | 0.7%[38.3 µM] | 8% | -4 | -4.7 | 32 | 0.6 | 1.0%
CCCCCn1c(=O)c(C(=O)NCCc2ccccc2)c(O)c2ccccc21 | 17% | -9% | -1 | 0.1 | 9 | -0.1 | 1.0%
CCOC(=O)c1c(C)n(COCCO)c2ccc(O)cc12 | -3.4%[38.3 µM] | 0% | -1 | 6.2 | 52 | -0.7 | -1.4%
Cc1cccc(C2=NCC(=O)N(CC(=O)NCc3ccco3)c3sc4c(c32)CCCC4)c1 | 3.3%[38.3 µM] | 22µM* | 4 | 1.7 | 2 | 2.1 | 1.6%
Cn1c(O)c(C=Nc2ccccc2-c2ccccc2)c(=O)n(C)c1=O | 0.7% | 10% | -14 | -3.4 | 8 | -0.1 | .
O=C1NC(=O)N(C2CCCCC2)C(=O)C1C1c2ccccc2C(=O)N1Cc1ccccc1 (stereo not drawn) | 1.2% | 2% | 25 | 6.4 | -3 | -0.9 | 1.1%
COc1ccc(CN2C(=O)NC(=O)/C(=C/c3ccc([N+](=O)[O-])s3)C2=O)cc1 | 13% | 20µM* | 13 | ? | 7 | 2.1 | .
O=C(Nc1ccc(OC(F)(F)F)cc1)C1CCN(S(=O)(=O)c2cccs2)CC1 | ? | . | . | . | 4 | 3.0 | -1.8%
COc1ccc(-n2nnnc2C(c2cccc3ccccc23)N2CCC(n3c(=O)[nH]c4ccccc43)CC2)cc1 (stereo not drawn) | -0.8% | . | . | . | . | -0.6 | 0.4%
CC(C)Oc1ccc(C2(C#N)CC[N+](C)(C)CC2)cc1 | -0.6% | 11% | 9 | -2.5 | 26 | 0.5 | 1.1%
COc1cccc(NC(=O)N2CCC3(CC2)OCCO3)c1 | 1.6% | -1% | -2 | 6.4 | 4 | 0.4 | -0.4%
Cc1oc(-c2ccccc2Cl)nc1CN1C(=O)CN=C(c2ccccc2)c2cc(Cl)ccc21 | -0.7% | . | . | . | 19 | -0.5 | -0.4%
COC(=O)C1=C(c2ccc(OCc3ccccc3)cc2)C[C@@H]2CC[C@H]1N2C(=O)NCc1ccc(N(C)C)cc1 | 1.2% | . | 12 | . | -7 | 0.9 | 0.5%
CNC1(c2ccc(F)cc2)CCCCC1 | -3.6% | . | . | . | -10 | 0.1 | -0.6%
COC(=O)C1=C(c2ccc(OC)c(OC)c2)C[C@@H]2CC[C@H]1N2C(=O)N1CCC(C)CC1 | -0.2% | . | -4 | . | 0 | -0.6 | 3.3%
CCOc1ccccc1N1C(=O)NC(=O)/C(=C/c2ccc3c4c(cccc24)CC3)C1=O | 2.5% | 56µM* | -3 | 7.5 | 2 | 2.5 | 15%
Cc1cccc(-n2c(C)nc3ccccc3c2=O)c1C | -0.2% | 20% | 6 | -3.4 | -21 | -0.6 | -1.6%
CC(=O)c1cn(Cc2ccc(C#N)cc2)c2ccccc12 | 6.5% | 12% | -2 | -0.3 | 1 | 0.9 | -1.3%
COc1ccn(C)c(=O)c1C#N | -0.2% | 15%&8%&17% | -3 | -7.7 | . | . | 0.4%
Cc1cccc(CN2CCc3nc(N4CCN(c5ccccn5)CC4)ncc3C2)c1 | 1.1% | . | . | . | 6 | 2.8 | 55%
COC(=O)C1=C(c2cccc(C#N)c2)C[C@@H]2CC[C@H]1N2C(=O)NCCc1ccccc1 | 0.4% | . | 5 | . | -14 | -0.9 | -2.1%

An excerpt; count on the stated rates, not on these rows.
